# Screening results: PubChem, Broad Institute
# Vaccinia stage – Vaccinia orthopox stage-specific inhibition; Vaccinia-infected cells, mCherry/Venus stage reporter fluorescence; active compounds read low; some inactives read as strong as hits; activity change (mCherry), % (test concentration not listed); 89,000 tested, 0.01% active; AID 1053133;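 active means mCherry past -33% and 40 or more points under the early reporter, replicates agreeing; inconclusive means past -33% without that gap or agreement; tested in A549 cells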;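 further: scaled between vehicle wells and reference inhibitor wells; 23 nL library stock went into each well; one replicate is shown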
# Vaccinia stage Venus – second read-out of Vaccinia stage, no call of its own (marks repeat the call); activity change (Venus), %; measured here: Venus reporter, other viral stage;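 negative = less Venus signal; first of two replicates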
# * hit, by the source's call; ? = inconclusive; . = no result given; & = joins results of further samples.
1) C[C@@H]1CN([C@H](C)CO)C(=O)Cc2cc(NC(=O)CCCN(C)C)ccc2O[C@H]1CN(C)Cc1ccc(-c2ccccc2)cc1
2) CO[C@@H]1CN(C)C(=O)c2cc(NC(=O)c3ccccc3F)ccc2OC[C@H](C)N(CC2CCOCC2)C[C@@H]1C
3) CO[C@H]1CN(C)C(=O)c2ccc(NC(=O)C3CCOCC3)cc2OC[C@H](C)N(C(C)=O)C[C@@H]1C
4) COCC(=O)N1CC(=O)N2[C@H](CO)[C@@H](c3ccc(C#CC4CC4)cc3)[C@@H]2C1
5) CCCNC(=O)C[C@H]1CC[C@@H]2[C@H](COc3ccc(NC(=O)NCCC)cc3C(=O)N2C)O1
6) C[C@@H]1CN([C@@H](C)CO)C(=O)c2cc(NC(=O)Nc3ccc4c(c3)OCO4)ccc2O[C@@H]1CN(C)Cc1ccc2c(c1)OCO2

screen / no.	1	2	3	4	5	6
Vaccinia stage	?	-5	15	-7	14	?
Vaccinia stage Venus	.	-7	1	-6	9	.

7) C[C@@H]1CN([C@H](C)CO)C(=O)c2cc(NS(=O)(=O)c3ccc(F)cc3)ccc2O[C@@H](C)CCCCO[C@@H]1CN(C)S(=O)(=O)c1cn(C)cn1
8) Cc1ccccc1-c1ccc(C2[C@H]3CNC[C@@H]2N3C(=O)Nc2ccc(C(F)(F)F)cc2)cc1 (stereo not given in full)
9) C[C@H]1CN([C@@H](C)CO)C(=O)Cc2cc(NS(=O)(=O)c3ccc(F)cc3)ccc2O[C@@H]1CN(C)C(=O)NC1CCCCC1
10) COC(=O)C[C@H]1C[C@H]2c3cc(N)ccc3O[C@H]2[C@@H](CO)O1
11) Cc1noc(C)c1S(=O)(=O)Nc1ccc2c(c1)CC(=O)N([C@@H](C)CO)C[C@@H](C)[C@@H](CN(C)S(=O)(=O)c1ccc(Cl)cc1)O2
12) CCCC#Cc1cnc2c(c1)C(=O)N([C@H](C)CO)C[C@H](C)[C@@H](CN(C)S(=O)(=O)c1ccccc1)O2

screen / no.	7	8	9	10	11	12
Vaccinia stage	7	-8	7	17	-9	-6
Vaccinia stage Venus	4	-5	13	13	-4	-9

13) COc1ccc(S(=O)(=O)N(C)C[C@H]2Oc3c(NC(=O)C4CC4)cccc3C(=O)N([C@@H](C)CO)C[C@H]2C)cc1
14) CCCNC(=O)N1[C@H](C#N)[C@H](c2ccccc2)[C@H]1CO
15) Cc1noc(C)c1NC(=O)N(C)C[C@@H]1Oc2ccc(NC(=O)Cc3ccccc3)cc2C(=O)N([C@H](C)CO)C[C@H]1C
16) Cc1ccc(S(=O)(=O)N(C)C[C@H]2Oc3ccc(NC(=O)Cc4ccccc4)cc3C(=O)N([C@H](C)CO)C[C@H]2C)cc1
17) C[C@@H]1CCCCO[C@H](CN(C)C(=O)c2ccccc2)[C@@H](C)CN([C@H](C)CO)C(=O)c2cc(NS(C)(=O)=O)ccc2O1
18) C/C=C/c1cnc2c(c1)C(=O)N([C@H](C)CO)C[C@@H](C)[C@@H](CN(C)C(=O)C1CCCCC1)O2

screen / no.	13	14	15	16	17	18
Vaccinia stage	0	0	7	-19	5	19
Vaccinia stage Venus	16	7	-1	-10	3	19

19) C[C@H]1CN([C@@H](C)CO)C(=O)Cc2cc(NS(=O)(=O)c3cn(C)cn3)ccc2O[C@H]1CN(C)CC1CC1
20) C[C@@H]1CN([C@@H](C)CO)C(=O)c2cc(NC(=O)Nc3ccc4c(c3)OCO4)ccc2O[C@@H]1CN(C)Cc1ccc(C(=O)Nc2ccccc2N)cc1
21) CC(=O)N(C)C[C@H]1Oc2cc(C#CC(C)(C)O)ccc2S(=O)(=O)N([C@H](C)CO)C[C@@H]1C
22) CC(C)NC(=O)N1CC2(C1)[C@H](c1ccccc1)[C@@H](CO)N2C(=O)C1CCCC1
23) C[C@@H]1CCCCO[C@H](CN(C)S(=O)(=O)c2cn(C)cn2)[C@@H](C)CN([C@H](C)CO)C(=O)c2cc(NS(=O)(=O)c3cn(C)cn3)ccc2O1
24) CC(C)(O)C#Cc1ccc([C@@H]2[C@H]3CN(C(=O)c4ccc(F)cc4)CCCCN3[C@H]2CO)cc1

screen / no.	19	20	21	22	23	24
Vaccinia stage	7	9	14	4	20	25
Vaccinia stage Venus	7	9	7	2	16	8

25) COCC(=O)Nc1ccc2c(c1)OC[C@H](C)N(Cc1ccccc1OC)C[C@@H](C)[C@@H](OC)CN(C)C2=O
26) COc1ccc(NC(=O)Nc2ccc3c(c2)C(=O)N([C@@H](C)CO)C[C@@H](C)[C@@H](CN(C)S(=O)(=O)c2ccc(Cl)cc2)OCCCC[C@@H](C)O3)cc1
27) C[C@@H]1CN([C@@H](C)CO)C(=O)Cc2cc(NS(=O)(=O)c3ccccc3)ccc2O[C@H]1CN(C)C(=O)NC1CCCCC1
28) C[C@@H]1CN([C@@H](C)CO)C(=O)c2cccc(NC(=O)Nc3ccc4c(c3)OCO4)c2O[C@@H]1CN(C)C(=O)Nc1ccc(C(F)(F)F)cc1
29) COc1ccc(NC(=O)N(C)C[C@H]2Oc3ccc(NC(=O)NC4CCCCC4)cc3CC(=O)N([C@H](C)CO)C[C@@H]2C)cc1
30) CN(C)C(=O)C[C@H]1C[C@H]2c3cc(NS(=O)(=O)c4ccccc4)ccc3O[C@H]2[C@H](CO)O1

screen / no.	25	26	27	28	29	30
Vaccinia stage	-4	17	-18	-4	13	3
Vaccinia stage Venus	6	6	-9	-10	-2	-1

31) COc1cccc(CN2CC3(CN(Cc4ccccn4)C3)c3c([nH]c4cc(OC)ccc34)[C@H]2CO)c1
32) CCC(=O)N1CC2(C1)CN(Cc1nccs1)[C@@H](CO)c1c2c2ccc(OC)cc2n1C
33) O=C(C[C@H]1CC[C@@H](NC(=O)C2CCOCC2)[C@@H](CO)O1)NCc1ccccc1Cl
34) CCCNC(=O)N(C)C[C@@H]1Oc2ncc(C#Cc3ccccc3F)cc2C(=O)N([C@H](C)CO)C[C@@H]1C
35) COC(=O)C[C@H]1CC[C@@H]2[C@@H](COc3ccc(NC(=O)c4cccc(F)c4)cc3C(=O)N2C)O1
36) C[C@@H]1CN([C@H](C)CO)C(=O)Cc2cc(NC(=O)CCC(F)(F)F)ccc2O[C@@H]1CN(C)CC1CC1

screen / no.	31	32	33	34	35	36
Vaccinia stage	17	23	-8	3	3	8
Vaccinia stage Venus	19	18	-6	1	3	10

37) COc1ccc(-c2ccc([C@@H]3[C@H](CO)N4CCCCN(C(=O)NC(C)C)C[C@@H]34)cc2)cc1
38) CCCNC(=O)C[C@@H]1CC[C@H]2[C@@H](COC[C@@H](O)CN2Cc2ccc(Cl)c(Cl)c2)O1
39) NC(=O)[C@]1(Cc2ccccc2)N=C(c2ccc(OCCCO)cc2)O[C@@H]1c1ccccc1
40) C[C@@H](NC(=O)C[C@H]1CC[C@@H]2[C@H](COC[C@H](O)CN2C(=O)Nc2ccccc2)O1)c1ccccc1
41) Cc1noc(C)c1NC(=O)Nc1ccc2c(c1)C(=O)N([C@@H](C)CO)C[C@H](C)[C@H](CN(C)CC1CCCCC1)OCCCC[C@H](C)O2
42) COCC(=O)N(C)C[C@@H]1Oc2cc(-c3ccccc3F)ccc2S(=O)(=O)N([C@@H](C)CO)C[C@H]1C

screen / no.	37	38	39	40	41	42
Vaccinia stage	-21	-9	-4	10	-5	13
Vaccinia stage Venus	-20	-3	-26	4	-11	6

43) CNC[C@H]1Oc2ccc(NC(=O)CCN3CCOCC3)cc2CC(=O)N([C@H](C)CO)C[C@@H]1C
44) O=C1CN(S(=O)(=O)Cc2ccccc2)C[C@@H]2[C@@H](c3ccc(C#Cc4cccc(F)c4)cc3)[C@@H](CO)N12
45) COCC(=O)NC[C@@H]1[C@H](c2ccc(C3=CCCC3)cc2)[C@@H](CO)N1C(C)=O
46) Cc1ccc(S(=O)(=O)N(C)C[C@H]2OCCCC[C@H](C)Oc3ccc(NC(=O)c4ccccc4)cc3C(=O)N([C@H](C)CO)C[C@H]2C)cc1
47) CC(=O)N(C)C[C@H]1Oc2cc(-c3cncnc3)ccc2S(=O)(=O)N([C@H](C)CO)C[C@@H]1C
48) C[C@@H]1CN([C@@H](C)CO)S(=O)(=O)c2ccc(Br)cc2O[C@@H]1CN(C)S(=O)(=O)c1ccc(F)cc1

screen / no.	43	44	45	46	47	48
Vaccinia stage	22	?	11	-18	18	-19
Vaccinia stage Venus	-2	.	12	-15	3	-17

# Compound profiles, as listed above. Order of screens: Vaccinia stage	Vaccinia stage Venus
# Shown for Cc1ccc(S(=O)(=O)N(C)C[C@H]2OCCCC[C@H](C)Oc3ccc(NC(=O)c4ccccc4)cc3C(=O)N([C@H](C)CO)C[C@H]2C)cc1 = -18	-15
# Shown for O=C1CN(S(=O)(=O)Cc2ccccc2)C[C@@H]2[C@@H](c3ccc(C#Cc4cccc(F)c4)cc3)[C@@H](CO)N12 = ?	.
# Shown for COCC(=O)NC[C@@H]1[C@H](c2ccc(C3=CCCC3)cc2)[C@@H](CO)N1C(C)=O = 11	12

# More structures.
49) C/C=C/c1ccc2c(c1)O[C@H](CN(C)C(=O)CC)[C@@H](C)CN([C@H](C)CO)S2(=O)=O
50) COc1ccc(S(=O)(=O)N(C)C[C@H]2Oc3ccc(NC(=O)c4ccncc4)cc3CC(=O)N([C@@H](C)CO)C[C@@H]2C)cc1
51) O=S(=O)(N[C@H]1CC[C@H](CCn2cc(-c3cccc(F)c3)nn2)O[C@H]1CO)c1ccc(F)cc1
52) CNC[C@@H]1OCCCC[C@@H](C)Oc2ccc(NS(C)(=O)=O)cc2C(=O)N([C@@H](C)CO)C[C@@H]1C
53) CNC[C@@H]1Oc2ccc(NS(=O)(=O)c3cn(C)cn3)cc2CC(=O)N([C@H](C)CO)C[C@H]1C
54) C[C@H]1CN([C@@H](C)CO)C(=O)CCCn2cc(nn2)CO[C@@H]1CN(C)C(=O)Nc1ccc(F)cc1

screen / no.	49	50	51	52	53	54
Vaccinia stage	10	2	2	6	0	6&7
Vaccinia stage Venus	14	0	-8	-3	5	5&11

55) O=C(C[C@H]1CC[C@@H]2[C@H](COC[C@H](O)CN2S(=O)(=O)c2ccc(Cl)cc2)O1)NCCN1CCCCC1
56) C[C@@H]1CN([C@H](C)CO)C(=O)c2cc(C3=CCCCC3)cnc2O[C@H]1CN(C)CC1CCOCC1
57) C[C@H](CO)N1C[C@H](C)[C@H](CN(C)Cc2ccc(-c3ccccc3)cc2)Oc2ccc(NC(=O)Nc3ccc4c(c3)OCO4)cc2C1=O
58) O=C(NCc1ccccn1)[C@@H]1[C@@H](CO)[C@@H]2Cn3c(ccc(C4=CCCC4)c3=O)[C@H]1N2Cc1cccnc1
59) O=C(c1ccc(F)cc1)N1CC(=O)N2[C@@H](CO)[C@H](c3ccc(C#Cc4ccc(F)cc4)cc3)[C@@H]2C1
60) CC(C)NC(=O)Nc1ccc2c(c1)CC(=O)N([C@@H](C)CO)C[C@@H](C)[C@@H](CN(C)Cc1ccc(Oc3ccccc3)cc1)O2

screen / no.	55	56	57	58	59	60
Vaccinia stage	14	-12	-21	12	-27	?
Vaccinia stage Venus	2	-8	-12	21	-22	.

61) C[C@H](CO)N1C[C@H](C)[C@H](CN(C)Cc2ccc(C(=O)Nc3ccccc3N)cc2)Oc2c(NC(=O)c3ccncc3)cccc2C1=O
62) COc1ccc(S(=O)(=O)N(C)C[C@H]2OCCCC[C@H](C)Oc3ccc(NS(=O)(=O)c4ccc(C)cc4)cc3C(=O)N([C@H](C)CO)C[C@@H]2C)cc1
63) CC(C)NC(=O)N(C)C[C@@H]1Oc2cc(-c3ccccc3)ccc2S(=O)(=O)N([C@H](C)CO)C[C@H]1C
64) C[C@H]1CN([C@@H](C)CO)C(=O)Cc2cc(NC(=O)CCC(F)(F)F)ccc2O[C@H]1CN(C)C(=O)Nc1ccc2c(c1)OCO2
65) Cc1cccc(S(=O)(=O)N[C@H]2CC[C@@H](CCNC(=O)Nc3cc(F)ccc3F)O[C@H]2CO)c1
66) C/C=C/[C@@H](CC(=O)N1Cc2ccccc2C[C@H]1CO)[Si](C)(C)c1ccc(OC)cc1

screen / no.	61	62	63	64	65	66
Vaccinia stage	-3	-34	11	3	-5	-11
Vaccinia stage Venus	-1	-28	3	8	-3	-12

67) CCCNC(=O)N(C)C[C@H]1Oc2cc(C#CCOC)ccc2S(=O)(=O)N([C@H](C)CO)C[C@@H]1C
68) CC(C)NC(=O)N1C[C@H]2[C@@H](c3ccccc31)[C@H](CO)N2C(=O)C1CCCC1
69) C[C@@H]1CN([C@H](C)CO)C(=O)c2cc(-c3ccccc3)cnc2O[C@H]1CN(C)C(=O)c1ccccn1
70) C[C@@H]1CN([C@H](C)CO)C(=O)c2cccc(N(C)C)c2O[C@H]1CN(C)Cc1ccc(-c2ccccc2)cc1
71) O=C(C[C@H]1CC[C@H](NC(=O)C2CCC2)[C@H](CO)O1)NCCCN1CCOCC1
72) COc1ccc(-c2cn(CC[C@H]3CC[C@@H](NC(=O)Nc4ccc(F)cc4)[C@H](CO)O3)nn2)cc1
73) CCCC#Cc1cnc2c(c1)C(=O)N([C@@H](C)CO)C[C@@H](C)[C@H](CN(C)Cc1ccncc1)O2
74) Cc1ccc(S(=O)(=O)N(C)C[C@@H]2OCCCC[C@H](C)Oc3ccc(NC(=O)Nc4ccc(F)cc4)cc3C(=O)N([C@H](C)CO)C[C@@H]2C)cc1
75) C[C@H](CO)N1C[C@H](C)[C@@H](CN(C)S(C)(=O)=O)Oc2c(NC(=O)Nc3ccc4c(c3)OCO4)cccc2C1=O

screen / no.	67	68	69	70	71	72	73	74	75
Vaccinia stage	8	8	9	-19	9	9	3	-3	13
Vaccinia stage Venus	10	8	11	-18	4	-4	-5	-3	7

# A portion of the library; the hit share may differ from the screen's.
